# Screening data (PubChem BioAssay)
# VACV mCherry inh = qHTS for Stage-Specific Inhibitors of Vaccinia Orthopoxvirus: mCherry Reporter Primary qHTS | 310,000 compounds, 0.63% hits | Vaccinia virus mCherry reporter infection, fluorescence; about a quarter of the inactives have no number | Potency, µM (doses to about 36.5 µM), inactives show at the top dose activity change, negative = inhibition, actives largely listed as inhibitors; active = well fitted inhibition curve with a large enough effect; inconclusive = small, poorly fitted or top-dose-only effect; inactive = no such curve, though single readings can be large or run the other way; tested in A549 cells; note: nearly all actives have a fitted effect of over 35% in size; inactives centre near -10
# Vaccinia Venus = qHTS for Stage-Specific Inhibitors of Vaccinia Orthopoxvirus: Venus Reporter Primary qHTS; Vaccinia virus Venus reporter expression, fluorescence; Potency, µM (highest dose often 36.5 µM), for the others: at the highest dose activity change, negative = inhibition, hits mostly inhibitors; 330,000 compounds, 0.46% hits; active means well fitted inhibition curve with a large enough effect; inconclusive means small, poorly fitted or top-dose-only effect; inactive means no such curve, though single readings can be large or run the other way; tested in A549 cells; note: nearly all actives have a fitted effect of over 30% in size; inactives centre near -10
# The depositor's hits bear a star; i = inactive; ? = inconclusive; . = not tested or not shown; & = joins results of further samples. % is set by controls: 0 for no effect and ±100 for the full control effect; potency is the fitted concentration of half-maximal effect.
SMILES,VACV mCherry inh,Vaccinia Venus
O=C(C1=NN[C@@H]2C(=O)N(c3cccc(C(F)(F)F)c3)C(=O)[C@H]12)c1ccc2ccccc2n1,-12%,3%
COC(C/C=C/[C@H](O)COCc1ccccc1)OC,-10%,-1%
COc1ccc(NC(=O)CC2C(=O)N(c3ccc(C)cc3)C(=O)N2Cc2ccc(C)cc2)cc1 (stereo not drawn),-8%,-3%
Cc1ccc(C(=O)Nc2ccncc2)c(C)c1,-11%,-23%
COc1ccc(/C=N/NC(=O)Nc2cccc3nsnc23)cc1OC,i,-12%
Cc1cccc2cc(CN(CC3CCCO3)C(=O)c3ccco3)c(=O)[nH]c12 (stereo not drawn),-6%,-10%
Cn1c(SCC(=O)NC2CCCCC2)nnc1-c1ccccc1F,-2%,0%
CCc1ccc(N(C(=O)c2csnn2)C(C(=O)NC(C)(C)CC)c2ccccn2)cc1 (stereo not drawn),-8%,-8%
COC(=O)COc1ccc(S(=O)(=O)NCCC2=CCCCC2)cc1C,i,-4%
CCCn1c(CCc2ccccc2)n[nH]c1=S,-3%,-14%
COc1ccccc1C(=O)N/C(=C/c1ccc(Br)cc1)C(=O)NCCO,-3%,-12%
CC(=O)NCCc1nc2ccccc2n1Cc1cc(C)ccc1C,-27%,-1%
CCc1cc(=O)oc2cc(C)cc(OC(=O)c3ccco3)c12,-1%,-15%
O=C(COc1ccccc1)N(Cc1cccnc1)c1nc2c(F)cc(F)cc2s1,-17%,-5%
COc1ccc(-c2nc3scc(CCNS(=O)(=O)c4ccc(F)cc4C)n3n2)cc1,-14%,-18%
O=c1[nH]c(-c2ccc(Cl)cc2)cs1,-17%,-3%
Cc1ccc(Cl)cc1NC(=O)CC(O)(C(F)(F)F)C(F)(F)F,?,28µM*
CC(=O)c1cccc(-n2nnnc2SCC(=O)NNC(=O)C2CCCCC2)c1,4%,-8%
CC(=O)Nc1cccc(-c2nnc(SCC(=O)c3cc([N+](=O)[O-])ccc3Cl)o2)c1,-21%,-13%
C=CCn1c(-c2ccc(OC)cc2)csc1=Nc1c(C)n(C)n(-c2ccccc2)c1=O,.,?
O=C(c1c2c(nc3ccccc13)C(=O)N(C1CCCCC1)C2)N1CCN(c2ccc(F)cc2)CC1,-18%,-15%
Cn1c(C(=O)O)c(CC(=O)Nc2ccc3c(c2)OCCO3)c2ccccc21,-13%,0%
COc1ccc(NC(=O)CN(C)C(=O)CCc2nc3cc(S(=O)(=O)N4CCOCC4)ccc3n2C)cc1,-17%,-5%
Cc1ccc(/C=N\NC(=O)c2csnn2)cc1,-14%,1%
NC(=O)CC(NC(=O)c1ccccc1)c1ccc(NCc2ccccn2)c([N+](=O)[O-])c1 (stereo not drawn),-3%,-6%
COc1cccc2sc3ccc(C#CC4(O)CCCCC4)cc3c(=O)c12,-6%,-26%
COc1ccc(NS(=O)(=O)c2cccc(C(=O)N/N=C/c3ccccn3)c2)cc1,-3%,-2%
O=Cc1c(NCCc2ccc(F)cc2)c2ccccc2[nH]c1=O,-2%,-12%
O=C(COC(=O)C1CC1)NCCc1ccccc1,-7%,-11%
CCC(C(=O)Nc1cc(C)on1)c1ccccc1 (stereo not drawn),-27%,-12%
COc1ccccc1C(=O)NNC(=O)c1ccc(F)cc1,i,-1%
CC[C@@H]1CC=C[C@H]2[C@H]1C(=O)N(Cc1ccccc1)[C@H]2c1ccoc1,?,?
CCOC(=O)c1[nH]nc(-c2c(O)cc(C)cc2O)c1-c1csc(C)n1,-10%,2%
Cc1nn2c(nc1=O)SCC(c1ccccc1)=N2,-4%,-8%
O=C(O)/C=C/C(=O)NNC(=O)c1cc(-c2ccccc2)n[nH]1,2%,-2%
COc1cccc(CN(C)C(=O)C(CCSC)NS(=O)(=O)c2ccc3c(c2)OCCO3)c1OC (stereo not drawn),-28%,-20%
CCOc1ccc(-n2c(=O)c3sccc3n(CC(=O)NCC3CCCO3)c2=O)cc1 (stereo not drawn),-13%,8%
Cn1c(=O)c2c(ncn2CC(=O)N/N=C/C(Br)=C/c2ccccc2)n(C)c1=O,-4%,-13%
CC1CCN(S(=O)(=O)c2ccccc2[N+](=O)[O-])CC1,-11%,-9%
CC1(C)C(=O)OC(c2ccco2)C(C)(C)C1=O (stereo not drawn),-14%,-7%
CCOc1ccc(S(=O)(=O)N2CCN(Cc3ccc4c(c3)OCO4)CC2)cc1OCC,-17%,-13%
COc1ccc(CN2CCC(=O)N(CCO)CC2)cc1OC,i,-1%&-19%
C=CCNC(=S)/N=c1/ccccn1C,-7%,-12%
COc1ccc2c(CC(=O)Nc3ccc(C)cc3)coc2c1,i,-6%
CS(=O)(=O)Cc1ccc(C(=O)NC2CCSc3ccccc32)cc1 (stereo not drawn),-4%,-2%
O=C(c1cnc(N2CCN(c3ncccn3)CC2)c2ccccc12)N1CCN(c2ccccn2)CC1,?,-27%
CO/N=C/CC(=O)c1ccc([N+](=O)[O-])c(CS(=O)(=O)c2ccc(Cl)cc2)c1,-11%,-22%
COc1cccc(-c2cc(C(=O)Nc3cc(C)nn3-c3ccccc3)no2)c1,-10%&-16%,-19%&-11%
O=C(Cn1[nH]c(=O)c2ccccc2c1=O)Nc1cccc(S(=O)(=O)N2CCCCCC2)c1,-12%,-17%
O=C(N/N=C/c1cccc2ccccc12)c1cccc(F)c1,i,-10%
Cc1ccc(C(=O)OCC(=O)NNC(=O)c2ccccc2)c(O)c1,i,-11%
CC(C)CN(C(=O)c1cc(Cl)nc2ccccc12)C1CCS(=O)(=O)C1 (stereo not drawn),-9%,-1%
Cc1nc2ccc(Cl)cc2c(-c2ccccc2Cl)c1CC(=O)O,-5%,-16%
CCc1ccc(-n2c(C)nnc2SCc2nc(-c3ccc(OC)cc3)no2)cc1,-4%,8%
O=Nc1ccc(NOC(=O)c2ccccc2)cc1,-6%,-2%
Cn1c(CNC(=O)C2CCCCC2)cc2cc(Cl)ccc21,-8%,-9%
O=C(CSC1=NCCS1)Nc1cccc(F)c1,-4%,-12%
Cc1ccc(CNC(=O)[C@H](C)NC(=O)C2CCN(C(=O)[C@@H](N)CC(C)C)CC2)cc1,-9%,-11%
O=C(O)c1c(F)c(F)c(F)c(F)c1-c1ccc(Cl)cc1,-25%,-14%
C/C=C/C(=O)Nc1nnc(C(C)C)s1,.,-16%

# Continued:
SMILES,VACV mCherry inh,Vaccinia Venus
O=C(OCC(=O)N1CCCc2ccccc21)C1CCN(S(=O)(=O)c2cccs2)CC1,.,-16%
CC1(C(=O)NS(=O)(=O)c2ccccc2Cl)CCN1C(=O)Cc1ccc(Cl)cc1Cl (stereo not drawn),3%,-4%
CCN(CC)C(=O)Cn1cc(SCC(=O)NCc2ccco2)c2ccccc21,i,-9%
CCOc1ccc(OCC)c(NC(=O)C2CCN(S(=O)(=O)c3cccnc3)CC2)c1,-19%,-4%
CCC(CC)C(=O)N(C)c1c(C)nc2c(OCc3ccc(Cl)cc3)cccn12,4%,-16%
COC(C(=O)N/N=C/c1ccc(OCC(=O)N2CCOCC2)cc1)c1ccccc1 (stereo not drawn),i,-7%
CCCn1c(N)c(N(CCOC)C(=O)CCC2CCCCC2)c(=O)[nH]c1=O,-11%,-13%
Cc1cccn2c(=O)c3cc(C(=O)NC(C)(C)C)n(C)c3nc12,-12%,-6%
Cn1cccc1Cc1nnc(SCC(=O)N2CCOCC2)n1CCc1ccccc1,-9%,-8%
O=C(CNS(=O)(=O)c1ccc(Br)cc1)NCc1ccncc1,i,-7%
Cc1ccc(CNC(=O)C(=O)NCCC2=CCCCC2)cc1,-21%,?
Cn1c(N)c(C(=O)COC(=O)c2cc(S(=O)(=O)N3CCCCC3)ccc2Cl)c(=O)n(C)c1=O,-12%,-13%
CCOc1ccc(/C=C2\SC(=S)N(C)C2=O)cc1OC,-17%,-7%
Clc1ccc(CN2CCN(c3ncnc4sc5c(c34)CCCC5)CC2)cc1Cl,-7%,3%
Cc1ccc(S(=O)(=O)N2CCN(C(=O)c3ccc(N4CCCCC4)c([N+](=O)[O-])c3)CC2)cc1,-20%,-18%

# 5 entries from above, arranged by length of the SMILES, falling.
SMILES,VACV mCherry inh,Vaccinia Venus
Cc1ccc(S(=O)(=O)N2CCN(C(=O)c3ccc(N4CCCCC4)c([N+](=O)[O-])c3)CC2)cc1,-20%,-18%
Clc1ccc(CN2CCN(c3ncnc4sc5c(c34)CCCC5)CC2)cc1Cl,-7%,3%
Cn1cccc1Cc1nnc(SCC(=O)N2CCOCC2)n1CCc1ccccc1,-9%,-8%
O=C(CNS(=O)(=O)c1ccc(Br)cc1)NCc1ccncc1,i,-7%
Cc1ccc(CNC(=O)C(=O)NCCC2=CCCCC2)cc1,-21%,?

# Later entries.
SMILES,VACV mCherry inh,Vaccinia Venus
Cc1ncc2c(c1CNC(=O)c1ccc3c(c1)OCO3)CCN(C(=O)/C=C/c1ccc(Cl)cc1)C2,-3%,15%
C[C@H](NS(=O)(=O)c1ccccc1F)C(=O)OCC(=O)N1CCc2ccccc21,.,-12%
CCn1c(-c2ccccn2)nc2cc(S(=O)(=O)N(C)C)ccc21,-11%,-11%
O=C(CCSCc1ccc(Cl)cc1)NCc1ccc(F)cc1Cl,-6%,-12%
NCC(N)C(=O)c1ccccc1 (stereo not drawn),1%,0%
Cc1ccccc1-c1nnc(-c2ccccc2C)o1,-8%,-3%
CN(C)S(=O)(=O)c1cc(NC(=O)COC(=O)Cc2ccc(Br)cc2)ccc1Cl,-12%,-2%
CCN(CC)CCCNC(=S)N(Cc1cccs1)Cc1cc2cc3c(cc2[nH]c1=O)OCCO3,-2%,-13%
COC(=O)c1ccc(NC(=O)c2cc[n+]([O-])cc2)cc1,-4%,-6%
CCCCNC(=O)NC1(C(F)(F)F)Oc2ccccc2O1,.,-6%
CCOC(=O)c1ccc(-n2ccnc2)c(NC(=O)c2cccc(Br)c2)c1,-12%,-6%
CC1(C(=O)NS(=O)(=O)Cc2ccccc2)CCN1C(=O)C1(c2ccc(Cl)cc2)CC1 (stereo not drawn),20%,3%
CC1(C(=O)Nc2cccc(Oc3ccccc3)c2)Cc2c(-c3ccccc3)ccnc2O1 (stereo not drawn),-16%,-28%
COc1ccc(NC(=O)[C@@H]2O[C@H](CO)[C@H](O)[C@H](O)[C@H]2O)cc1F,i,-13%
CCOC(=O)c1c(NC(=O)CSc2cccc[n+]2[O-])sc(C(=O)Nc2ccccc2)c1C,-4%,-3%

# Of the compounds above, 3 have a CF3 group.
SMILES,VACV mCherry inh,Vaccinia Venus
O=C(C1=NN[C@@H]2C(=O)N(c3cccc(C(F)(F)F)c3)C(=O)[C@H]12)c1ccc2ccccc2n1,-12%,3%
Cc1ccc(Cl)cc1NC(=O)CC(O)(C(F)(F)F)C(F)(F)F,?,28µM*
CCCCNC(=O)NC1(C(F)(F)F)Oc2ccccc2O1,.,-6%

# The main list resumes with the 3 entries that preceded the break.
SMILES,VACV mCherry inh,Vaccinia Venus
CC1(C(=O)Nc2cccc(Oc3ccccc3)c2)Cc2c(-c3ccccc3)ccnc2O1 (stereo not drawn),-16%,-28%
COc1ccc(NC(=O)[C@@H]2O[C@H](CO)[C@H](O)[C@H](O)[C@H]2O)cc1F,i,-13%
CCOC(=O)c1c(NC(=O)CSc2cccc[n+]2[O-])sc(C(=O)Nc2ccccc2)c1C,-4%,-3%
CCOC(=O)c1ccc(NC(=S)NC(=O)C2CCCC2)cc1,-14%,-4%
O=[N+]([O-])c1cccc(C2(O)COc3ccccc3O2)c1 (stereo not drawn),-10%,-13%
COc1cc(NC(=O)C2CCCCC2)c(OC)cc1NC(=O)c1ccco1,-19%,-6%
Cc1cccc(Cn2c(CN3CCN(Cc4ccccc4)CC3)nc3c2c(=O)[nH]c(=O)n3C)c1,-9%,-9%
Cc1ccc(-n2ncc(-c3nn[nH]n3)c2N)cc1,-13%,-7%
O=C(C[C@H]1C(=O)N(C2CCCCC2)C[C@@H]1Cc1ccccc1)Nc1ccccc1,-17%&-18%,-15%&-9%
C=CCNc1nc(NCCOC)c2sc(-c3ccccc3)cc2n1,-11%,-21%
COc1ccc(CNC(=O)CCc2c(C)nn(-c3ccc(N4CCOCC4)nn3)c2C)c(OC)c1,-5%,-5%
CCOC(=O)[C@]12CCCC=C1N(CCC1=CCCCC1)C(=O)[C@H](CC(=O)N1CCC(c3ccccc3)CC1)C2,-3%,-29%
Cc1cccc2cc(COC(=O)C3CCCCC3)c(=O)[nH]c12,-8%,-2%
COc1cccc(C2(O)CCN(C(=O)c3cccs3)CC2)c1,-7%,-3%
C[C@@H]1CN([C@H](C)CO)C(=O)CCCn2nncc2CO[C@H]1CN(C)S(C)(=O)=O,-11%,-14%
O=C(COC(=O)CNC(=O)C1CCCCC1)Nc1ccc2c(c1)OCCO2,i,-6%
O=C(NNC(=O)C1CCCO1)c1ccc(Br)cc1 (stereo not drawn),0%,-7%
O=C(Nc1ccc(C(=O)OCc2cc(=O)n3c4c(sc3n2)CCCC4)cc1)c1cccc(F)c1,-17%,-12%
S=C1NCCNC(=S)NCCOCCOCCOCCN1,-2%,-6%
CCC(=O)N1CCc2cc(S(=O)(=O)NC(CC(C)C)C(=O)NCCc3ccccc3)ccc21 (stereo not drawn),-6%,-12%
